# GLA inh pH 4.5 = alpha-galactosidase A (human) inhibition, pH 4.5 | P06280 | purified enzyme, 4-MU-alpha-Gal fluorescence, pH 4.5 | activity change, negative = inhibition, % at 105 µM | 230,000 tested, under 10 active | AID 1467; inconclusive = small, poorly fitted or top-dose-only inhibition, or a rising curve; inactive = flat fitted curve, though single readings scatter; no compound was filed as active;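 also: 0% = full activity with enzyme and -100% = basal without enzyme; dose as in the result columns while the protocol names 77 µM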
# Target sequence (P06280 whole entry, looked up): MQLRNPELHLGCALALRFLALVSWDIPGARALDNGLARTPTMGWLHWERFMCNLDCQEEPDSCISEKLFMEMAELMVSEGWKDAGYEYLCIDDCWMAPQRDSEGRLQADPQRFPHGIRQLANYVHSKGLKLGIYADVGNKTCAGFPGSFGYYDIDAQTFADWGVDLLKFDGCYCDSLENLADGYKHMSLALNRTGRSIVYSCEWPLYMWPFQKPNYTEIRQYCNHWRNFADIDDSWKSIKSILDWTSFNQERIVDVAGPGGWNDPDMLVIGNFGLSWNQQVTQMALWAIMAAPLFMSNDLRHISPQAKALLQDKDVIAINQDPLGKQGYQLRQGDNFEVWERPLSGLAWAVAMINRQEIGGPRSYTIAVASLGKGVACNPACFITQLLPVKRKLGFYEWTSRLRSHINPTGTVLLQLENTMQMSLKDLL
# miR-21 FLuc = miR-21 reporter, rising signal | HeLa miR-21 FLuc reporter, luciferase, 48 h | Potency, µM (top dose mostly 38.3 µM), without a hit: top-dose reporter change, positive = more light | 340,000 tested, under 10 active; active = well fitted rising curve with a large enough effect; inconclusive = small, poorly fitted or top-dose-only effect; inactive = no such curve, though single readings can be large or run the other way;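 also: % of control where 0% means no effect; miR-21 action dims this reporter so a rising signal means less miR-21 action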
#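 Compounds were titrated across several concentrations (up to approximately 40 uM) and incubated 48 hours with HeLa miR-21-FLuc reporter cells (miR-21 target sequence downstream of FLuc, endogenous miR-21). Readout was firefly luciferase luminescence after lytic detection reagent.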
# Rango dissoc inh = inhibition of RanGTP-driven Rango-importin beta dissociation | O95149+P62826 | Biochemical FRET Rango-importin beta, RanGTP-induced dissociation | Potency, µM (series often up to 46.1 µM), for the others: at the highest dose activity change, negative = inhibition | 340,000 compounds, 0.071% hits; active means falling FRET ratio curve, often poorly fitted, with flat reads before Ran was added; inconclusive means other falling curves, or compound fluorescence or quenching; inactive means flat or rising ratio curve;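 also: potency is read from the fitted curve at half-maximal effect; % of control where 0% means no effect; nearly all actives have a fitted effect of over 45% in size; -100% = wells without RanGTP and RCC1; the record marks most hits as doubtful in a second field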
#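 Rango/importin beta premix (0.1/0.25 uM final), PBS + 1 mM DTT + 0.02% Tween-20 + 0.1% BSA; cpd 5 min RT; FRET pre-read; + RanGTP-RCC1 (0.6 uM Ran, 2 mM GTP, 0.2 uM RCC1); 45 min RT; FRET post-read, ex 430, em 486/530 nm.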
# Rango complex inh = Rango-importin beta binding inhibition; Q14974; Rango CFP/YFP FRET sensor + importin beta, 45 min; Potency, µM (doses to about 92.2 µM), without a hit: at the highest dose inhibition of complex formation; 340,000 compounds, 0.031% hits; AID 540263; active = rising FRET ratio curve, often small or poorly fitted; inconclusive = mostly compound fluorescence or quenching in the first reads; inactive = flat curves in all reads;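 also: potency is read from the fitted curve at half-maximal effect; 0% = DMSO wells and 100% = buffer wells lacking importin beta; nearly all actives have a fitted effect of over 15% in size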
#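 FRET biosensor Rango (snurportin 1 IBB between N-terminal EYFP and C-terminal Cerulean), 50 nM in PBS/1 mM DTT/0.02% Tween-20/0.1% BSA, preincubated 5 min RT with compound; 0.125 microM importin beta added, 45 min RT, CFP/YFP FRET ratio read.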
# * = called active by the depositor; ? = inconclusive; / = no result given; & = joins results of further samples.
SMILES,GLA inh pH 4.5,miR-21 FLuc,Rango dissoc inh,Rango complex inh
COc1ccc(C(=O)Nc2ccc3[nH]c(-c4cccc(OC)c4)cc(=O)c3c2)cc1,1&4,18%,21%,-1.6%
O=C(NCC1CCCCC1)c1ccc(F)cc1Cl,/,-50%,0%,-2.4%
CCCCN(C)C(=O)c1ccc(CS(=O)(=O)c2ccccc2C)o1,0,-7%,17%,-2.0%
CSc1nc2ccccc2cc1/C=C(\C#N)c1cccc(Cl)c1,1,-4%,-2%,2.3%
O=C(CCCCCN1C(=O)c2ccccc2C1=O)Nc1ccc(S(=O)(=O)N2CCCCC2)cc1,-19,13%,-7%,4.6%
Cc1cc(C(=O)N/N=C/c2cc(Br)ccc2OC(=O)c2ccccc2)n[nH]1,0,13%,-7%,-1.3%
O=C(CSc1ccc(-c2ccco2)nn1)N1CCCCCC1,-3,-23%,4%,0.1%
O=C(O[C@@H]1OC2COC(=O)c3cc(O)c(O)c(O)c3-c3c(cc(O)c(O)c3O)C(=O)O[C@@H]([C@H]1O)[C@@H]2O)c1cc(O)c(O)c(O)c1,-7,1%,-3%,?
Cc1ccc(S(=O)(=O)N2CCCCC2)cc1NC(=O)CNC(C)c1ccc(Cl)c(Cl)c1 (centres undefined),/,/,4%,-0.5%
Cn1c(=O)cc(OCCCC(=O)N2CCCCC2)c2ccccc21,-2,-7%,-2%,-0.4%
Cc1ccsc1/C=N/NC(=O)c1cccnc1,-4,-14%,15%,1.4%
Cc1ccc(S(=O)(=O)N2CCOC2CNC(=O)C(=O)NCCN(C)C)cc1 (centres undefined),/,1%,11%,-1.8%
CCOC(=O)N1CCN(CCC(=O)Nc2ccc(OC(F)(F)F)cc2)CC1,-10,-2%,-1%,1.6%
Cc1cc(N2CCCC2=O)ccc1S(=O)(=O)N1CCOCC1,-10,3%,21%,2.9%
CCc1nc2ccccc2c(C(=O)OCC(=O)Nc2cccc(S(=O)(=O)N3CCOCC3)c2)c1C,-3,19%,1%,2.1%
O=C(Cc1ncc(C(F)(F)F)cc1Cl)N1CCN(c2ccc(F)cc2)CC1,2,0%,1%,0.5%
Fc1ccc(-c2nc3nc4ccccc4nc3n2Cc2ccco2)cc1,2,-39%,-15%,3.7%
CC1(C)CC(=O)C(N=Nc2cccnc2)=C(O)C1,-14,2%,6%,-1.6%
Cc1ccc(S(=O)(=O)N(CC(=O)NCCSc2ccccn2)c2ccccc2F)cc1,/,19%,4%,4.4%
CC(=O)c1cc2c(cc1NC(=O)CSc1nnc(C)s1)OCO2,16,-3%,19%,-1.0%
Cc1ccc(NC(=O)C(=O)c2cn(CC(=O)N3CCCCC3)c3ccccc23)cc1,-7,-19%,-8%,0.4%
COc1ccc(-c2csc(NC(=O)C3CSC4(C)CCC(=O)N34)n2)c(OC)c1 (centres undefined),/,/,24%,2.9%
COc1ccc(C2CC(c3ccccc3)=NN2C(=O)c2cccs2)cc1 (centres undefined),-17,-38%,-2%,-3.9%
c1ccc2c(CCNc3ncnc4nc[nH]c34)cccc2c1,-1,22%,-11%,?
Cc1ccc(NC(=O)CN(C)C(=O)Cc2c(Cl)cccc2Cl)cc1,/,-2%,-2%,-2.4%
# (next part)
SMILES,GLA inh pH 4.5,miR-21 FLuc,Rango dissoc inh,Rango complex inh
COc1ccc(NS(=O)(=O)c2cc(N)ccc2N2CCCC2)cc1,/,/,1%,-1.6%
COC(=O)c1ccc2ccccc2c1OC1OC(CO)C(O)C(O)C1NC(C)=O (centres undefined),/,0%,-18%,0.8%
Cc1ccc2nsnc2c1NC(=O)Cc1ccc(Cl)cc1,8,0%,1%,0.1%
O=C(NC1CCCCCC1)C1CCCN(S(=O)(=O)c2cccs2)C1 (centres undefined),4,-5%,-6%,2.4%
O=C(CNC(=O)Cc1ccccc1)NCC(=O)OCC(=O)c1ccc(Cl)cc1,-4,-1%,4%,6.1%
Cc1ccccc1Nc1nnc(C)c(=O)n1N,-1,-1%,0%,4.9%
Cc1ccc(S(=O)(=O)NCc2ccccc2)cc1C(=O)N(C)Cc1ccccc1F,/,2%,4%,1.0%
Cc1ccc2c(cnn2C(=O)CCCC(=O)NCc2cccc(F)c2)c1,/,-7%,7%,0.0%
C/C=C(\C)CN1CCCC(CO)(Cc2ccccc2)C1 (centres undefined),-4,1%,10%,-4.0%
O=S1(=O)N=C(N(CCO)/N=C/c2ccc(Cl)cc2)c2ccccc21,/,-3%,5%,3.9%
O=C(c1ccc(S(=O)(=O)c2cccc(Cl)c2)c([N+](=O)[O-])c1)N1CCN(Cc2ccccc2)CC1,-5,14%,-6%,2.8%
CC1CCC2=NN(C(=O)c3ccco3)C(O)(C(F)(F)F)C2C1 (centres undefined),11,1%,3%,2.4%
CNc1snc(C)c1C(=O)OCC(=O)N(C)Cc1ccccc1,/,/,14%,2.2%
O=C(NCCN=C1NS(=O)(=O)c2ccccc21)c1ccccc1,/,0%,9%,-2.0%
Cc1ccc(N2C(=O)CCC(C(=O)O)C2c2cccs2)cc1 (centres undefined),/,10%,3%,4.7%
O=C(N/N=C/c1cccs1)C1CC(=O)N(c2ccccc2)C1 (centres undefined),4,-13%,3%,-1.0%
CCN(CC)CCCNc1ccc2ncn3c4ccc(O)cc4c(=O)c1c23,/,/,?,?
O=C(NCCc1ccccc1F)C1CC(=O)N(c2cccc(C(F)(F)F)c2)C1 (centres undefined),/,/,7%,3.0%
O=C(CN1CCOCC1)Nc1ccccc1Sc1ccccc1,-3,2%,4%,2.1%
O=C(Nc1ccc(Cl)cc1)N(Cc1cccs1)Cc1cccs1,-14,-4%,5%,0.7%
COc1cc(/C=C(\C#N)C(=O)Nc2cccnc2)ccc1OC(C)C,2,-8%,0%,?
CCc1ccccc1N(CC(=O)NC1CCCCC1)C(=O)CCCC(=O)Nc1ccccn1,/,-1%,-2%,0.0%
Cc1ccc(C(=O)NC(=S)/C=C2\N(C)c3ccccc3C2(C)C)cc1,-15,-11%,?,?
CC(C)Nc1nc(NC2CCCC2)nc(N2CCOCC2)n1,/,/,5%,-1.7%
O=C(CN1CCCCC1)Nc1ccccc1Oc1ccccc1,-10,-4%,-8%,-0.1%

# A draw from above in order of heavy-atom count, highest first:
SMILES,GLA inh pH 4.5,miR-21 FLuc,Rango dissoc inh,Rango complex inh
CCN(CC)CCCNc1ccc2ncn3c4ccc(O)cc4c(=O)c1c23,/,/,?,?
O=S1(=O)N=C(N(CCO)/N=C/c2ccc(Cl)cc2)c2ccccc21,/,-3%,5%,3.9%
O=C(Nc1ccc(Cl)cc1)N(Cc1cccs1)Cc1cccs1,-14,-4%,5%,0.7%
CC(C)Nc1nc(NC2CCCC2)nc(N2CCOCC2)n1,/,/,5%,-1.7%

# Two of these compounds, reformatted:
# Results follow in this order: GLA inh pH 4.5 | miR-21 FLuc | Rango dissoc inh | Rango complex inh
COC(=O)c1ccc2ccccc2c1OC1OC(CO)C(O)C(O)C1NC(C)=O (centres undefined)
→ / | 0% | -18% | 0.8%
Cc1ccc2nsnc2c1NC(=O)Cc1ccc(Cl)cc1
→ 8 | 0% | 1% | 0.1%

# The listing continues:
SMILES,GLA inh pH 4.5,miR-21 FLuc,Rango dissoc inh,Rango complex inh
O=C(c1cn(-c2ccccc2)nc1-c1cccs1)N1CCN(c2ccc(F)cc2)CC1,5,8%,4%,-0.8%
COC(=O)c1ccc(N2CCN(C)CC2)c(NC(=O)COc2ccc(C)cc2)c1,/,-4%,14%,-1.7%
Cc1ccccc1NC(=O)NCCCN1CCN(c2ccccc2)CC1,0,-3%,3%,0.8%
COc1ccc(C2c3c(ncn(Cc4ccco4)c3=N)Oc3ccc4ccccc4c32)cc1 (centres undefined),1,6%,-7%,-3.4%
COc1ccc(CNC(=O)C/C(C)=N/NC(=O)C23CC4CC(CC(C4)C2)C3)cc1,2,-28%,1%,1.6%
COC(=O)c1c(NC(=O)c2ccc(C)c(S(=O)(=O)Nc3ccccc3C)c2)sc2c1CCCC2,5,-5%,-23%,?
CC(C)Cc1ccc(CN2CCCC(NC(=O)c3cnc4ccccn4c3=O)C2)cc1 (centres undefined),/,/,6%,-0.2%
CCN(CC)CCNC(=O)c1ccc(NC(=O)Cc2ccsc2)cc1,/,-3%,-17%,-0.5%
Cc1noc(C)c1C(=O)N(CC(C)C)c1nc2ccccc2s1,/,-9%,-16%,0.7%
CC(C)(C)c1ccc(S(=O)(=O)N2CCN(CC(O)CN3CCOCC3)CC2)cc1 (centres undefined),/,/,3%,-2.1%
COc1cc(C)c(S(=O)(=O)N2CCCC2)cc1C(C)C,-1,-2%,-1%,-5.3%
O=c1[nH]nc(SCCS(=O)(=O)c2ccc(F)cc2)n1-c1ccc2c(c1)OCCO2,-10,21%,2%,3.8%
Cn1c(=O)oc2cc(S(=O)(=O)N3CCc4ccccc4C3)ccc21,/,-3%,31%,3.9%
CCCCC1=CC2=C(c3ccco3)C(=O)C(C)(OC(=O)c3ccc(OC)cc3)C(=O)C2=CN1CCCN(CC)CC (centres undefined),?,11%,-1%,5.1%
C=CCC(CC)C(=O)NC(=O)N1CCCc2ccccc21 (centres undefined),-8,2%,16%,-0.4%
Cc1ccc(COC(=O)c2nn(C)c(=O)c3ccccc23)cc1,2,-9%,2%,-1.9%
COc1ccc(NC(=O)COC(=O)CCc2nc3ccccc3c(=O)[nH]2)cc1Cl,/,/,-2%,-1.0%
O=C(COc1ccc(Cl)cc1Cl)NN=C1CCCCC1,3,-8%,6%,2.8%
O=C(/C=C/c1ccccc1)NC(NC(=S)Nc1ccc(C(=O)O)cc1)C(Cl)(Cl)Cl (centres undefined),-20,-12%,-16%,-0.6%
O=C(c1cccc(F)c1)N1C2C=CC(C2)C1(C(F)(F)F)C(F)(F)F (centres undefined),-2,1%,6%,-0.5%
Cc1ccc(S(=O)(=O)N2CCN(C(C)C(=O)NCC(C)c3ccccc3)CC2)cc1 (centres undefined),/,/,2%,0.3%
O=C(NNc1nc2cc3c(cc2s1)OCCO3)c1ccccc1,-4,-62%,-5%,-4.4%
O=C(Nc1cccc(Cl)c1Cl)c1ccccc1OCC(=O)N1CCOCC1,/,0%,8%,2.6%
Cc1ccc2c(c1)[C@@H]1CN(C)CC[C@@H]1N2S(=O)(=O)c1ccc([N+](=O)[O-])cc1,-4,6%,-8%,3.5%
CCOc1cc(C(N)=O)cc(OCC)c1OCC,3,-2%,6%,6.9%
# The list goes on:
SMILES,GLA inh pH 4.5,miR-21 FLuc,Rango dissoc inh,Rango complex inh
Cc1ccc(NC(=O)CCc2c(C)[nH]c(=O)c(C#N)c2C)cc1,/,6%,-8%,-2.8%
COc1ccc2ccccc2c1CN(C)Cc1ccccc1,/,1%,-13%,4.3%
CCc1ccccc1NC(=O)c1ccc(S(=O)(=O)NCC2CCCO2)cc1 (centres undefined),/,-2%,0%,0.9%
CCOC(=O)C1CCN(CC(O)COc2ccc(C(C)(C)CC)cc2)CC1 (centres undefined),-11,-5%,-15%,?
CCOc1ccc(C(=O)Nc2nncs2)cc1OCC,-2,-6%,-9%,0.0%
COC(=O)Nc1ccc2c(c1)N(C(=O)CCN1CCN3CCCC3C1)c1ccccc1CC2 (centres undefined),-4&3,-2%&-2%,-5%&-9%,-0.6%&0.5%
COc1ccc(Cc2nnc(NCCO)[nH]c2=O)cc1,/,0%,-9%,-1.0%
CC1CCCCN1CCNC(=O)C1CCN(S(=O)(=O)c2cccc3cccnc23)CC1 (centres undefined),-6,-10%,-26%,?
COC(=O)c1ccc(Oc2ccc(S(=O)(=O)N3CCCCC3)cc2N)cc1,/,23%,-6%,-2.1%
COc1cccc(CNC(=O)C2CSC3(C)CCC(=O)N23)c1 (centres undefined),/,/,-6%,0.4%
CCc1cc2c(=O)c(-c3nc4ccccc4n3C)c(C)oc2c(CN(CC)CC)c1O,-6,-1%,0%,-0.2%
Cc1nn(-c2ccccc2)c2c1C(O)CC(C)(C)C2 (centres undefined),/,-4%,4%,-1.3%
CC(=O)c1cccc(S(=O)(=O)N2CCCC(c3nc4c(nnn4Cc4cccc(Cl)c4)c(=O)[nH]3)C2)c1 (centres undefined),/,-11%,-22%,-2.7%
CC(C(=O)NC1CCCCCC1)c1ccc([N+](=O)[O-])cc1 (centres undefined),/,-3%,15%,1.1%

# From PubChem

# These rows are one share of the data, so the mix of outcomes need not match the whole.
